Screening results: PubChem, National Center for Advancing Translational Sciences (NCATS)
Vaccinia Venus = vaccinia inhibition (Venus reporter); 330,000 tested, 0.46% active; Vaccinia virus Venus reporter expression, fluorescence; AID 720580; Potency, µM (series often up to 36.5 µM), for the others: at the top dose activity change, negative = inhibition, usual class: inhibitors; active means well fitted inhibition curve with a large enough effect; inconclusive means small, poorly fitted or top-dose-only effect; inactive means no such curve, though single readings can be large or run the other way; tested in A549 cells; further: nearly all actives have a fitted effect of over 30% in size; inactives centre near -10
Vaccinia mCherry = inhibitors of vaccinia virus infection (mCherry reporter signal); Potency, µM (highest dose often 36.5 µM), for the others: at the top dose activity change, negative = inhibition, actives largely listed as inhibitors; AID 720579; Vaccinia virus mCherry reporter infection, fluorescence; about a quarter of the inactives have no number; 310,000 tested, 0.63% active; active = well fitted inhibition curve with a large enough effect; inconclusive = small, poorly fitted or top-dose-only effect; inactive = no such curve, though single readings can be large or run the other way; tested in A549 cells; further: nearly all actives have a fitted effect of over 35% in size; inactives centre near -10
Numbers without * were called inactive; i = inactive; ? = inconclusive; . = not tested or not shown; & = joins results of further samples; [ ] = remark or other dose. On the % scale 0 is the no-effect control and ±100 the full control effect; potency means the concentration at half of the fitted maximal effect.

SMILES	Vaccinia Venus	Vaccinia mCherry
Cc1cccc(C)c1NC(=O)C1(C)CSCC(=O)N1CCc1ccccc1F (stereo not drawn)	1%	-23%
COc1ccc(C(CC(=O)c2ccccc2)CC(=O)c2ccccc2)cc1OC	-2%	-2%
COC(=O)C(C(=O)OC)c1ccccc1NC(=O)OCc1ccccc1	-4%	?
O=C(CCS(=O)(=O)c1ccc(Br)s1)NC1CCCCCC1	?	-15%
CCO[C@H]1[C@H](NC(=O)c2cccnc2)c2ccccc2C12CCN(C(=O)c1ccoc1)CC2	6%	-3%
COc1ccc(Cl)cc1N(CC(=O)NC(C)(C)C)S(=O)(=O)c1ccc(C)c([N+](=O)[O-])c1	-16%	-7%
CCc1ccccc1NC(=O)c1nc(-c2ccncc2)no1	-7%	5%
C/C(CC(=O)NC1CCCCCC1)=N\NC(=O)c1cnccn1	-16%	-26%
O=C(Cn1cc(C(=O)C2CCCCC2)c2ccccc21)Nc1ccccc1Cl	-14%	-8%
O=C(c1nc2ccccn2c1CNCCCn1nnc2ccccc21)N1CCOCC1	-3%	i
CCNC(=S)NNC(=O)c1cccn(Cc2ccc(Cl)cc2)c1=O	-11%	-23%
CC(=O)Nc1ccccc1-c1nc2ccccc2n(CC(=O)c2ccc(Br)cc2)c1=O	-5%	i
C[C@]12CCC3C(CC[C@H]4C[C@H](O)CC[C@]34C)C1C[C@@H](O)[C@@H]2O (stereo partly drawn)	-1%	i
COc1ccc(C(=O)COC(=O)CN2C(=O)C3C4C=CC(C5CC45)C3C2=O)cc1 (stereo not drawn)	-4%	-13%
O=C(O)C(C(=O)/C=C/c1ccco1)=C1SCCS1	-15%	.
CC(C)=C1C2CCC1C1C(=O)N(NC(=O)c3ccco3)C(=O)C21 (stereo not drawn)	30%[activator]	-10%
CCOc1ccc(/C=C/C(=O)N(CC)CC(=O)NCc2cccs2)cc1OC	-18%	-21%
CN(C)CCNc1ccc(CO)c2sc3ccc(O)cc3c(=O)c12	?	?
COc1cccc(CNC(=O)CCNS(=O)(=O)c2ccc3c(c2)CC(C)N3C(C)=O)c1 (stereo not drawn)	-8%[7.34 µM]	-20%[7.34 µM]
Cc1ccc(C2=CCNCC2)cc1	-8%	-3%
COc1ccc(S(=O)(=O)N2CCCCCC2)cc1C(=O)N(C)CC(=O)Nc1cc(C)ccc1C	?	-3%
COC(=O)c1cc(C#N)c(N(C)Cc2ccccc2)nc1C	7%	i
O=C(OCc1cc(=O)n2c(n1)sc1ccccc12)c1ccc(O)cc1	10%	3%
COc1ccc(C(=O)NC2CC2)cc1OC1CCN(Cc2ccccc2F)CC1	-7%	i

Seven of the compounds above, with two lines to a compound.
Each structure is followed by: Vaccinia Venus | Vaccinia mCherry
COc1ccc(C(=O)COC(=O)CN2C(=O)C3C4C=CC(C5CC45)C3C2=O)cc1 (stereo not drawn)
  -4% | -13%
Cc1ccc(C2=CCNCC2)cc1
  -8% | -3%
C[C@]12CCC3C(CC[C@H]4C[C@H](O)CC[C@]34C)C1C[C@@H](O)[C@@H]2O (stereo partly drawn)
  -1% | i
COc1cccc(CNC(=O)CCNS(=O)(=O)c2ccc3c(c2)CC(C)N3C(C)=O)c1 (stereo not drawn)
  -8%[7.34 µM] | -20%[7.34 µM]
CC(C)=C1C2CCC1C1C(=O)N(NC(=O)c3ccco3)C(=O)C21 (stereo not drawn)
  30%[activator] | -10%
CN(C)CCNc1ccc(CO)c2sc3ccc(O)cc3c(=O)c12
  ? | ?
COc1ccc(S(=O)(=O)N2CCCCCC2)cc1C(=O)N(C)CC(=O)Nc1cc(C)ccc1C
  ? | -3%

(continued)
SMILES	Vaccinia Venus	Vaccinia mCherry
Cc1ccc(NC(=S)N(Cc2ccco2)C(C)c2cccs2)cc1 (stereo not drawn)	-8%	i
CC(C)(C)NC(=O)CN(c1cccc([N+](=O)[O-])c1)S(=O)(=O)c1ccccc1	-5%	i
O=S(=O)(NCC(c1cccnc1)N1CCN(c2ccc(F)cc2)CC1)c1cccs1 (stereo not drawn)	-14%	i
COc1ccccc1NC(=O)C1=C(C)Nc2ncnn2C1c1sccc1C (stereo not drawn)	2%	-10%
Cc1ccc(NC(=O)NCCCc2ccccc2)cc1	-13%	-25%
Cc1cc(C)n(-c2nc(SCC(=O)Nc3nccs3)c3c4c(sc3n2)COC(C)(C)C4)n1	-8%	.
Cc1ccccc1CNC(=O)C(=O)NCC(c1ccco1)S(=O)(=O)c1cccs1 (stereo not drawn)	-19%	-17%
COc1ccc(CNC(=O)CCS(=O)(=O)c2ccc3c(c2)oc(=O)n3C)cc1	-12%&7%	-15%&-1%
CC[C@]12c3[nH]c4cc(-c5ccco5)ccc4c3CCN1C(=O)[C@@H](CC(=O)NCC13CC4CC(CC(C4)C1)C3)C[C@@H]2C(=O)N1CCN(C(=O)C2CC2)CC1	?	?
Cc1cc(C)c2nc(Nc3nc(-c4ccccc4)cc(=O)[nH]3)nc(C)c2c1	-7%	-2%
CCOc1cc(S(=O)(=O)N2CCCC2)c(C)cc1C	2%	3%
Cc1nc(N)sc1-c1csc(Nc2ccccn2)n1	-8%	-21%
Cc1ccc(-n2c(C)cc(C(=O)CSc3nncs3)c2C)cc1	?	?
COc1ccc(C)cc1NC(=O)C(=O)N/N=C(\C)CC(=O)Nc1cccnc1	-6%	-4%
Cc1cc(Nc2ccc(Br)cc2F)n2nc(C)nc2n1	-13%	-25%
Cc1cccc(NC(=O)Cn2c(=O)oc3ccccc32)c1C	-6%	-21%
COc1cc(/C=N/NC(=O)c2ccncc2)c([N+](=O)[O-])cc1OC	-8%	-3%
Cc1c(OC(=O)N(C)C)ccc2c1O/C(=C\c1ccco1)C2=O	-7%	i
Cc1ccc(C(O)c2ncc(-c3cccc(F)c3)[nH]2)cc1 (stereo not drawn)	-2%	i
COc1ccc(NC(=O)COc2ccc(/C=C/c3cc[n+](C)cc3)cc2OC)cc1	-2%	-8%
Brc1ccc(CN2CC[C@H]3C=CCc4cccc(c43)C2)cc1	-8%&-8%	?
Cc1noc(C)c1CSCC(=O)Nc1cccc(C(F)(F)F)c1	-11%	-2%
COc1ccc(-c2cc(C(=O)OC3CCOC3=O)c3ccccc3n2)cc1OC (stereo not drawn)	-11%	i
COC(=O)c1c(-c2ccc(Cl)cc2)noc1N1CCN(c2cccc(C(F)(F)F)c2)CC1	-2%	-3%

The last two entries of the section above lead into the next:
SMILES	Vaccinia Venus	Vaccinia mCherry
COc1ccc(-c2cc(C(=O)OC3CCOC3=O)c3ccccc3n2)cc1OC (stereo not drawn)	-11%	i
COC(=O)c1c(-c2ccc(Cl)cc2)noc1N1CCN(c2cccc(C(F)(F)F)c2)CC1	-2%	-3%
CCN(CC)C(=O)c1cc(C(C)(C)C)c(O)c(C(C)(C)C)c1	-15%	-21%
O=C(N/N=C/c1coc2ccccc2c1=O)c1cc(Br)ccc1O	-12%	-2%
O=C(O)CCCCCCCCCC[n+]1ccccc1	-2%	-14%
COc1ccc(-c2nc3cc(C)c(Br)c(C)n3c2Cc2ccc(C)cc2)cc1OC	7%	32%[activator]
C/C(=N\Nc1ccccn1)c1ccc(C#N)cc1	-1%	-5%
CCc1cc2c(cc3c(=O)n(CC(=O)N4CCCCC4)nc(CC)n32)s1	-4%	-6%
COc1ccc(N2CCN(S(=O)(=O)c3cn(C)cn3)CC2)cc1	-8%	i
O=c1ccc2ccc(O[C@@H]3O[C@H](CO[C@@H]4OC[C@](O)(CO)[C@H]4O)[C@@H](O)[C@H](O)[C@H]3O)cc2o1	0%	i
O=C(Nc1ccccc1C(=O)Nc1ccc(F)cc1)c1ccco1	-11%	-20%
O=c1[nH]nc(SCc2ccccc2)c(=O)[nH]1	5%	-23%
Cc1ccc2c(CC(=O)Nc3ccc(S(=O)(=O)N4CCC(C)CC4)cc3)coc2c1	-21%	-6%
CCOc1ccc(-c2cccc(NS(=O)(=O)c3cc([N+](=O)[O-])ccc3Cl)c2)nn1	?	10µM*
Cc1ccc(F)c(C2C3C=CCC(c4cccc(-c5ccc(N(C)C)cc5)c4)C3C(=O)N2Cc2ccccc2)c1 (stereo not drawn)	-18%	?
Cn1c(=O)n(C)c2cc(N3CCOCC3)c(NC(=O)c3ccc(C(C)(C)C)cc3)cc21	1%	-3%
CC(=O)Nc1ccc(N2CCN(C(C)=O)CC2)cc1	-4%	-10%
Cc1cnc(NC(=O)C2CCCC2)s1	-25%	.
O=C(O)c1cc2nc(-c3ccc(F)cc3)cc(C(F)(F)F)n2n1	-2%	.
CC1(c2ccc([N+](=O)[O-])cc2)NC(=O)N(CC(=O)Nc2ccc(N3CCCCC3)cc2)C1=O (stereo not drawn)	-25%	-26%
COC(=O)CCCC1=CC2=C(c3ccccc3)C(=O)C(C)(OC(=O)C3CCCC3)C(=O)C2=CN1Cc1ccc(OC)cc1 (stereo not drawn)	-13%	i
COc1ccccc1C(CNC(=S)NCc1ccccc1)N1CCCC1 (stereo not drawn)	-28%	-16%
O=C(Cn1nc(C(F)(F)F)cc1C1CC1)NCc1ccccc1F	1%	i
COC(=O)c1ccccc1NC(=O)CCc1ccccc1	-5%	i
COc1ccc(CNC(=O)Cc2c(C)c3cc4c(C)coc4c(C)c3oc2=O)cc1OC	-1%	-3%
O=C(N/N=C\c1coc2ccccc2c1=O)c1ccco1	-2%	0%
O=[N+]([O-])c1ncn(Cc2ccccc2Cl)n1	-9%	i
O=C(O)CC(c1cccc(Cl)c1)n1cccc1 (stereo not drawn)	-6%	i
O=C(CSc1nc2ccccc2nc1SCC(=O)N1CCOCC1)N1CCOCC1	-3%	.
Cc1nc(C(=O)Nc2ccc(Cl)cc2)sc1C1(C)CC(c2cccc([N+](=O)[O-])c2)=NO1 (stereo not drawn)	-19%	?
Cc1ccc(OCc2nnc(SCC(=O)Nc3ccc(N4CCOCC4)cc3)o2)cc1	0%	-10%
COc1cccc(N2CCN(C(=S)Nc3ccccc3OC)CC2)c1	-12%	i
COc1cccc(C(=O)N2CCC[C@@H]2C(=O)N2CCC[C@H]2C(=O)NCc2ccncc2)c1	-1%	0%
CCCCNC(=O)COC(=O)c1c2c(nc3ccccc13)/C(=C\c1cccs1)CC2	?	-29%
Cc1cc(/C=N/NC(=O)CC#N)c(C)n1-c1ccc([N+](=O)[O-])cc1	0%	i
Cc1cccc(NC(=O)Cn2c(=O)n(CCCCCC(=O)NCc3ccccc3)c(=O)c3sccc32)c1	11%	6%
C=CCOc1ccc(/C=C2\SC(N3CCCCC3)=NC2=O)cc1	-8%	-14%
Cc1ccc2nc(SCC(=O)N3CCCc4ccccc43)nc(=O)n2c1	3%	-5%
Nc1ccc2c(c1)C(=O)c1ccc(N)cc1-2	4%	?
COc1ccc(NC(=O)CSc2ccc3nnc(-c4ccccn4)n3n2)cc1	8%	i
CC(=O)C1=C(Nc2ccc(C)cc2)CC(C)(O)C(C(C)=O)C1c1ccco1 (stereo not drawn)	-17%	-16%
COc1ccc(-c2cc(C(=O)NN)[nH]n2)cc1	-19%	-17%
Cc1cnc(C)c(Nc2nc(C(N)Cc3ccccc3)cs2)n1 (stereo not drawn)	-10%	-7%
O=C(Nc1ccc2c(c1)OCO2)N1CCN(C/C=C/c2ccccc2)CC1	-9%	i
COc1cc(OC)cc(C(=O)N[C@H](C(=O)OCC(=O)c2ccc(C)c([N+](=O)[O-])c2)C(C)C)c1	-11%	-14%
CCOC(=O)C1=CC[C@@H](c2ccc(F)cc2)N(S(=O)(=O)c2ccc(C)cc2)[C@H]1c1ccccc1	-4%	18%
CCOP(=O)(OCC)C(NC(=O)NC)C(N)=O (stereo not drawn)	-14%	i
COc1cccc2sc(Nc3nc(-c4cc5ccccc5oc4=O)cs3)nc12	-27%	?
O=c1[nH]c2ccccc2nc1/C=C(\O)C(F)F	12%	i
Cc1noc2ncnc(N3CCCC(C(=O)Nc4cccc(C(F)(F)F)c4)C3)c12 (stereo not drawn)	?	?
CSCCC(NC(=O)c1ccc(Cl)cc1Cl)C(=O)OCC(N)=O (stereo not drawn)	-9%	i
O=C(C1CC1)N1CCN=C1SCc1ccccc1Cl	-10%	3%
O=[N+]([O-])c1cc(S(=O)(=O)N2CCCCCC2)ccc1Cl	-9%	-11%
CCCCSc1nnc(CNC(=O)C23CC4CC(CC(C4)C2)C3)n1Cc1ccccc1	?	?
CCOc1cccc(CNn2cnnc2)c1OCc1ccccc1Cl	-14%	.
CCC1CN(CCNC(=O)c2cccc(C)n2)Cc2cc(OC)ccc2O1 (stereo not drawn)	-4%	-13%
C/C(=N\NC1=NCCN1)c1ccc(Cl)cc1	-8%[7.34 µM]	-11%[7.34 µM]
Cc1ccc(N2C(=O)CC(C)(C)CC2=O)cc1Cl	-16%	-2%
Cc1ccc(S(=O)(=O)NCC(c2ccco2)S(=O)(=O)c2ccccc2)cc1 (stereo not drawn)	-1%	?
CCCc1nc2sc3ccccc3c(=O)c2c(=O)n1Cc1ccc(OC)cc1	-8%[7.34 µM]	-6%[7.34 µM]
COc1ccc(-c2cnn3c(C)cc(C)nc23)cc1OC	-7%	-8%
CCCCCCC(N)CC(=O)O (stereo not drawn)	-6%	-4%

Single records, from the list above. Screens in order: Vaccinia Venus, Vaccinia mCherry
CCCCCCC(N)CC(=O)O (stereo not drawn) in the list: -6%, -4%
CCOc1cccc(CNn2cnnc2)c1OCc1ccccc1Cl in the list: -14%, .

(next part)
SMILES	Vaccinia Venus	Vaccinia mCherry
Cc1ccccc1C(=O)NC(=S)Nc1ccccc1[N+](=O)[O-]	1%	?
Cc1cc(C)c(S(=O)(=O)N(C)CC(=O)NCc2cccnc2)c(C)c1	-4%	i
CCCn1c(CN2CCN(C(=O)c3ccco3)CC2)nc2cc(S(=O)(=O)N(C)C)ccc21	-15%	i
Cc1cc(C(=O)OCC(=O)Nc2cccnc2Cl)c2ccccc2n1	-10%	-2%
